Rango release inh – prevents RanGTP from dissociating the Rango-importin beta complex; AID 540253; Potency, µM (doses to about 46.1 µM), for the others: at the highest dose activity change, negative = inhibition; 0.071% of 340,000 active; Biochemical FRET Rango-importin beta, RanGTP-induced dissociation; active means falling FRET ratio curve, often poorly fitted, with flat reads before Ran was added; inconclusive means other falling curves, or compound fluorescence or quenching; inactive means flat or rising ratio curve;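 further: potency means the concentration at half of the fitted maximal effect; % of control where 0% means no effect; nearly all actives have a fitted effect of over 45% in size; -100% = wells without RanGTP and RCC1; the record marks most hits as doubtful in a second field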
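Compounds preincubate 5 min with complex of recombinant Rango and importin beta in PBS with 1 mM DTT. Ran (0.6 uM) loaded with 2 mM GTP plus 0.2 uM RCC1 starts dissociation; FRET is recorded 45 min later.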
GLA inh pH 4.5 – inhibitors of human alpha-galactosidase A at pH 4.5; purified enzyme, 4-MU-alpha-Gal fluorescence, pH 4.5; activity change, negative = inhibition, % at 105 µM; 230,000 tested, under 10 active; AID 1467; inconclusive = small, poorly fitted or top-dose-only inhibition, or a rising curve; inactive = flat fitted curve, though single readings scatter; no compound was filed as active;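 further: 0% = full activity with enzyme and -100% = basal without enzyme; dose as in the result columns while the protocol names 77 µM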
Target sequence (P06280 whole entry, looked up): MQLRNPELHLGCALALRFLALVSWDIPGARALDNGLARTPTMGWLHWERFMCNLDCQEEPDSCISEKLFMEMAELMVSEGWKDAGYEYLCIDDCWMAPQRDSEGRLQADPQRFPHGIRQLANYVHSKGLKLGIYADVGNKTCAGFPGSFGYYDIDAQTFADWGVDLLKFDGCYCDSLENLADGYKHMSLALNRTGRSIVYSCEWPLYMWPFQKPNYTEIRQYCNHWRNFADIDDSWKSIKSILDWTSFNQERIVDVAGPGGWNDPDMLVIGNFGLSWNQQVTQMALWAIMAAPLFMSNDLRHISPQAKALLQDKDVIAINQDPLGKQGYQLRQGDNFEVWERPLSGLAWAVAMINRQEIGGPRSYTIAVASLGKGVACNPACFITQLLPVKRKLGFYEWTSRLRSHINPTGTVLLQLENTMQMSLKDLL
Rango-impB inh – prevents formation of the Rango-importin beta complex | Q14974 | Rango CFP/YFP FRET sensor + importin beta, 45 min | Potency, µM (series often up to 92.2 µM), without a hit: at the highest dose inhibition of complex formation | 0.031% of 340,000 active | AID 540263; active = rising FRET ratio curve, often small or poorly fitted; inconclusive = mostly compound fluorescence or quenching in the first reads; inactive = flat curves in all reads;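 further: potency means the concentration at half of the fitted maximal effect; 0% = DMSO wells and 100% = buffer wells lacking importin beta; nearly all actives have a fitted effect of over 15% in size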
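FRET biosensor (snurportin 1 IBB flanked by EYFP and cerulean), 50 nM, with compound 5 min, then 0.125 microM importin beta in PBS, 1 mM DTT, 0.02% Tween-20, 0.1% BSA. CFP/YFP ratio read after 45 min at room temperature; pre-read flags interference.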
miR-21 reporter – raises the signal of a miR-21 reporter; HeLa miR-21 FLuc reporter, luciferase, 48 h; Potency, µM (doses to about 38.3 µM), inactives show at the highest dose reporter change, positive = more light; 340,000 tested, under 10 active; active = well fitted rising curve with a large enough effect; inconclusive = small, poorly fitted or top-dose-only effect; inactive = no such curve, though single readings can be large or run the other way;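 further: % of control where 0% means no effect; miR-21 action dims this reporter so a rising signal means less miR-21 action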
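Using DMEM plus 10% FBS, HeLa miR-21-FLuc cells are incubated with test compounds (final up to about 40uM) for 48 hours; firefly luciferase signal is then imaged following reagent-mediated lysis.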
* hit, by the source's call; u = inconclusive; x = not tested or not shown; & = joins results of further samples. Only part of the results is shown (hit frequency here may not be typical).

miR-21 reporter,Rango release inh,Rango-impB inh,GLA inh pH 4.5,structure
-29%,-14%,-5.6%,5,Cc1cc(C)n2nc(-c3sccc3-n3c(C)ccc3C)cc2n1
-3%,-7%,0.0%,x,Cc1ccc(NC(=O)CN(C)C(=O)COC(=O)CCS(=O)(=O)c2ccc(C)cc2)cc1
-66%,28%,-2.7%,1,O=C(CC1CS(=O)(=O)CC1CC(=O)Nc1ccc2c(c1)OCCO2)Nc1ccc2c(c1)OCCO2 (stereo not drawn)
-3%,5%,0.1%,-3,O=C(c1ccccc1)c1nnc(-c2ccncc2)o1
-38%,4%,0.1%,-12,Cc1nc(NC(=O)Nc2ccc(Cl)cc2)sc1C
0%,0%,-3.0%,x,CC1CCCC(C)N1CCCNC(=O)Cn1ncc2c([nH]c3ccccc32)c1=O (stereo not drawn)
-54%,u,u,-11,COc1ccc(/C=C/C2=NC(=C\N(C)C)/C(=O)O2)cc1
-3%,-6%,-1.6%,-2,O=C(NC1CCCCC1)C1CCN(c2nccs2)CC1
-1%,3%,1.3%,1,O=C1COc2ccc(C(=O)COC(=O)C3CC(O)CN3S(=O)(=O)c3ccc(Cl)cc3)cc2N1 (stereo not drawn)
-14%,-2%,-1.8%,1,O=C(Nc1cccc(C(F)(F)F)c1)c1ccc2nc(N3C(=O)CCC3=O)sc2c1
x,-3%,2.2%,x,CC(C)(C)c1ccc(C(=O)NCCC(=O)Nc2cc(Cl)ccc2N2CCOCC2)cc1
18%,-10%,1.0%,x,COC(=O)c1ccc(CNC(=O)c2cc(COc3cncc(Cl)c3)on2)cc1
-3%,0%,0.3%,-2,CCCCn1c(=O)c(CCC(=O)OCC(=O)NC(C)c2ccccc2)nc2ccccc21 (stereo not drawn)
u,-22%,1.2%,4,CCC(=O)Nc1cccc(C(=O)/C=C/c2ccc(F)cc2)c1
15%,0%,-1.3%,-12,CCOC(=O)c1sc2nc(CC(=O)OC)nc(N3CCN(c4ccccn4)CC3)c2c1C
-40%,x,x,4,O=C(NNC(=O)C1C2CCC(C2)C1C(=O)O)c1ccc(Br)o1 (stereo not drawn)
-15%,-3%,2.0%,0,COc1ccc(CCNC(=O)CSc2nc(N)c3c(C)c(C)oc3n2)cc1OC
-3%,0%,-3.2%,x,COC(=O)C(CC(=O)c1ccc(Br)cc1)n1nc(C)cc1C (stereo not drawn)
x,-4%,-3.8%,x,COc1ccccc1CNCC(=O)Nc1cc(S(=O)(=O)N2CCOCC2)ccc1Cl
-37%,17%,-0.2%,8,O=C(/C=C/c1ccccc1)NC1CCSC1=O (stereo not drawn)
x,0%,-0.7%,x,N#Cc1ccc(NC(=O)CSc2n[nH]c(=O)n2C2CC2)cc1
-4%,-13%,-0.3%,-9,CC1(CCc2ccccc2)NC(=O)N(CC(=O)Nc2ccc(S(N)(=O)=O)cc2)C1=O (stereo not drawn)
-10%,16%,2.6%,x,OC(CNCc1ccncc1)c1ccccc1 (stereo not drawn)
-7%,0%,0.7%,0,CS(=O)(=O)Nn1cnc2ccccc2c1=O
-4%,0%,4.9%,6,COc1ccc2nc(C)cc(N3CCOCC3)c2c1
-5%,13%,0.7%,3,Fc1ccc(Oc2nnnn2-c2ccccc2)cc1
-6%,-11%,-0.9%,-5,CC(=O)C1C(c2ccc(Br)cc2)c2c(noc2C)CC1(C)O (stereo not drawn)
-3%,9%,2.4%,-5,Clc1ccc(COn2c(-c3ccc(Cl)cc3)nc3ccccc32)cc1
-4%,-2%,-1.8%,x,O=C(c1ccco1)N1CCN(C(=S)NCc2ccc(F)cc2)CC1
0%,-10%,-2.6%,11,CCOC(=O)c1sc(NC(=O)CCN2CCOCC2)c(C(=O)OCC)c1C
-22%,1%,2.1%,3,COc1ccc2ccc(Oc3ncccn3)cc2c1
-5%,13%,-0.5%,2,CC1CCCCN1S(=O)(=O)c1cccc2cccnc12 (stereo not drawn)
0%,-10%,-0.5%,8,O=C(NCc1ccc(F)cc1)c1c(O)c2cccc3c2n(c1=O)CCC3
-4%,-20%,5.0%,4,CCC(CC)C(=O)Nc1ccc(C(=O)Nc2cc(C)on2)cc1
-1%,-9%,0.3%,1,Cc1ccc2c(c1)cc(CN(Cc1cccnc1)C(=O)c1ccccc1)c1nnnn12
0%,-9%,-4.0%,x,FC(F)(F)c1cccc(CNC2c3ccccc3-c3ccccc32)c1
-44%,-9%,u,4,O=C(CSc1nc2cc(Cl)ccc2s1)c1ccco1
0%,-13%,-0.1%,x,Cc1ccc(NC(=O)CS(=O)CC(=O)N2CCN(C3CCCC3)CC2)cc1 (stereo not drawn)
-3%,-1%,-0.7%,2,CCCC(=O)C1=C(O)C(C(=O)OC)C(C)(C)CC1=Nc1ccc(N)cc1 (stereo not drawn)
-3%,-7%,-2.3%,0,Nc1ccccc1Nc1cc(-c2ccccc2)nn1-c1cccc(Cl)c1
-9%,-15%,-0.1%,x,COc1ccc(S(=O)(=O)N2CCN(C)CC2)cc1
-3%,-8%,-2.7%,-7,CC(C)(C)C(=O)Cn1c(=O)n(-c2ccc(F)cc2F)c(=O)c2sccc21
2%,19%,-3.3%,x,CCCc1ccc(Oc2cc(NN3CCCCC3)c([N+](=O)[O-])cc2[N+](=O)[O-])cc1
-2%,-18%,0.0%,x,CN(C(=O)c1nc(-c2ccccc2)n(-c2ccccc2)n1)C1CCS(=O)(=O)C1 (stereo not drawn)
2%,14%,-2.4%,2,COCCN(C(=S)Nc1cccc(C)c1C)C(C)c1ccco1 (stereo not drawn)
-6%,7%,0.4%,-4,COc1ccccc1Nc1nc(N)nc(CSc2nncn2C)n1
-35%,21%,-2.9%,-3,O=C(c1ccccc1)c1cccc(NC(=O)c2ccco2)c1
13%,-5%,8.1%,5,CC(C)[C@H](NC(=O)c1ccccc1)C(=O)OCc1nc2scc(-c3ccccc3)c2c(=O)[nH]1
3%,-8%,-0.4%,7,CCOc1cc(C(=O)O/N=C(\N)c2ccc([N+](=O)[O-])cc2)cc(OCC)c1OCC
0%,0%,0.1%,-7,O=C(O)c1c(-n2cccc2)sc2c1CCCC2
14%,0%,-2.5%,-2,O=[N+]([O-])c1cc(S(=O)(=O)NC2=NCCCCC2)ccc1Cl
10%,-7%,-0.8%,5,Cc1ccc(C2Nc3ccccc3C(=O)N2Cc2ccco2)cc1 (stereo not drawn)
-9%,-10%,0.0%,x,COc1ccc(CCNC(=O)c2c(C)nn(-c3ccccc3)c2Cl)cc1OC
-9%,6%,-1.7%,1,C=CCc1cccc2cc(C(=O)N(C)C)c(=O)oc12
x,27%,-1.5%,x,O=C(COc1ccc([N+](=O)[O-])cc1)Nc1ccc2c(c1)CCC2
-11%,5%,0.1%,-4,Cc1cc(C(=O)N/N=C2\CC(=O)CC(C)(C)C2)c(C)n1-c1ccccc1

Complete entries, looked up by structure. Order of values: miR-21 reporter	Rango release inh	Rango-impB inh	GLA inh pH 4.5
Fc1ccc(Oc2nnnn2-c2ccccc2)cc1 reads -5%	13%	0.7%	3
CCC(CC)C(=O)Nc1ccc(C(=O)Nc2cc(C)on2)cc1 reads -4%	-20%	5.0%	4
O=[N+]([O-])c1cc(S(=O)(=O)NC2=NCCCCC2)ccc1Cl reads 14%	0%	-2.5%	-2
O=C(CSc1nc2cc(Cl)ccc2s1)c1ccco1 reads -44%	-9%	u	4
COc1ccccc1CNCC(=O)Nc1cc(S(=O)(=O)N2CCOCC2)ccc1Cl reads x	-4%	-3.8%	x

Sorted by value in miR-21 reporter (descending): 3 of the compounds above.
miR-21 reporter,Rango release inh,Rango-impB inh,GLA inh pH 4.5,structure
-1%,-9%,0.3%,1,Cc1ccc2c(c1)cc(CN(Cc1cccnc1)C(=O)c1ccccc1)c1nnnn12
-5%,13%,0.7%,3,Fc1ccc(Oc2nnnn2-c2ccccc2)cc1
-54%,u,u,-11,COc1ccc(/C=C/C2=NC(=C\N(C)C)/C(=O)O2)cc1

Other records.
miR-21 reporter,Rango release inh,Rango-impB inh,GLA inh pH 4.5,structure
1%,16%,-0.2%,8,Cc1cc(C)cc(N2CCCn3c2nc2c3c(=O)n(CC(=O)OCc3ccccc3)c(=O)n2C)c1
x,1%,-0.3%,-1&2,O=c1[nH]c(=O)n([C@H]2C[C@H](O)[C@@H](CO)O2)cc1Br
-2%,-5%,2.6%,-18,Cc1onc(-c2c(F)cccc2Cl)c1C(=O)NCCO
9%,2%,3.5%,x,CN(C)c1ccc(O)c2c1CC1CC3[C@@H](N(C)C)C(=O)C(C(N)=O)=C(O)[C@]3(O)C(=O)C1=C2O (stereo partly drawn)
-29%,8%,0.3%,-8,COc1ccc(/C=C/C(=O)NC(=S)N2CCN(c3ccccn3)CC2)cc1
9%,2%,-0.3%,-6,O=C(NCc1ccccc1F)C1CCCN(C(=O)NC2CCCCC2)C1 (stereo not drawn)
-16%,11%,0.2%,-11,Cc1nnc(SCCn2c(N(C)Cc3ccccc3)nc3c2c(=O)[nH]c(=O)n3C)s1
-4%,0%,0.8%,-12,Cc1cc(NC(=O)CCc2ccc(C)o2)no1
0%,-15%,-1.1%,-1,CSc1ccccc1NC(=O)Cn1ccsc1=N
-27%,10%,-0.4%,x,Cc1c(Cl)cccc1NC(=O)C1COc2ccccc2O1 (stereo not drawn)
-6%,23%,-1.7%,-2,O=C(c1cn(-c2ccccc2)nc1-c1cccc(Br)c1)N1CCOCC1
8%,-9%,u,-9,Cc1ccc(OCCSCc2nc3ccccc3[nH]2)cc1
3%,u,3.4%,x,COCc1ccc(CN2CCCCC2C(=O)Nc2ccc(Oc3ccccc3)nc2)o1 (stereo not drawn)
1%,-19%,u,6,CCN1CCN(C(c2ccccc2)c2nnnn2Cc2ccc3c(c2)OCO3)CC1 (stereo not drawn)
-3%,-4%,2.1%,x,CS(=O)(=O)N1CCN(C(=O)CCc2ccccc2)CC1
x,-4%,-1.0%,x,CCCC1CC(C(=O)Nc2ccccc2)C(=O)O1 (stereo not drawn)
x,-9%,-1.8%,x,CCC1(c2ccc(F)cc2)NC(=O)N(CC(=O)N2c3ccccc3NC(=O)CC2C)C1=O (stereo not drawn)
-66%,-5%,-1.6%,1,COc1ccc2nc3oc(C(=O)N4CCCCC4)cc3cc2c1
-20%,-10%,-4.2%,-5,Cc1ncoc1C(=O)Nc1ccc(Oc2ccccc2)cc1
-11%,1%,-3.3%,-10,O=S(=O)(c1ccc(F)c(Cl)c1)N1CCCC1
x,5%,-0.6%,x,O=C(COC(=O)c1ccccc1O)Nc1ccc(N2CCOCC2)cc1
-1%,-2%,-2.0%,8,O=S(=O)(N1CCCCC1)N1CCN(S(=O)(=O)N2CCCCC2)CC1
-4%,-2%,u,1,Cc1ccc2nsnc2c1NC(=O)c1ccc2c(c1)OCCO2
-2%,7%,-0.9%,3,Cn1nnnc1SCC(=O)Nc1ccccn1
x,4%,1.7%,1,Cc1cc2oc(=O)cc(-c3ccccc3)c2c(C)c1-c1ccc(N(C)C)cc1
1%,-2%,-5.0%,x,Cc1cc(C)c(NC(=O)CSc2nnc(CNC(=O)c3ccccc3F)o2)c(C)c1
-4%,1%,5.7%,3,O=C(O)C1CC=CCC1C(=O)Nc1cccc([N+](=O)[O-])c1 (stereo not drawn)
-17%,0%,1.8%,3,C(=N\N1CCN(c2ccccn2)CC1)/c1cccc2ccccc12
-44%,0%,1.9%,0,Cc1cc(C)nc(Nc2nc3ccccc3o2)n1
-24%,-1%,0.1%,x,CC(=O)Nc1ccc(NC(=O)c2cc(-c3ccc(C)c(C)c3O)n[nH]2)cc1
2%,7%,1.4%,x,CCn1c(SCC(=O)NC2CCCC2)nnc1-c1ccncc1
-4%,-8%,-1.0%,-25,Cc1ccc(CC(CC(=O)O)C(=O)NC2CCCCC2)cc1 (stereo not drawn)
0%,-13%,2.8%,3,O=C(NCc1ccco1)C1CC(=O)N(c2ccc(F)cc2)C1 (stereo not drawn)
-1%,1%,u,x,CCC(CC)C(=O)Nc1nnc(SCC(=O)NC2CC2)s1

Screening results from PubChem.
